# Rce1 inh: inhibitors of yeast Ras-converting enzyme; Q03530; yeast membranes, quenched prenylated peptide cleavage fluorescence; calls only; actives 0.27% (n = 290,000);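 active = fall in fluorescence gain of 50% or more versus controls, with final raw signal at or below 3038400; inconclusive = same 50% fall but final raw signal above 3038400; inactive = fall in fluorescence gain under 50%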;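 also: plate controls were neutral control wells for no effect and wells lacking membranes for full effect; tested at 10 µM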
# Target sequence (Q03530 whole entry, looked up): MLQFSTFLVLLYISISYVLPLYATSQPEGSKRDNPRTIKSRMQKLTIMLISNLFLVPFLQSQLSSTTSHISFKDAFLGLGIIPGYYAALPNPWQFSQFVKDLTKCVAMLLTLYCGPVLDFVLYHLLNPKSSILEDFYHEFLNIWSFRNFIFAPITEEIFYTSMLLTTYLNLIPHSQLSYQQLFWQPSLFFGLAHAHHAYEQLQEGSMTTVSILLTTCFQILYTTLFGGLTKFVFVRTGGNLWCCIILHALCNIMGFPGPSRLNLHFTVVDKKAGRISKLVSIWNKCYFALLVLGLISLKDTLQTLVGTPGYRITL
# MT1-MMP act inh: inhibitors of human MT1-MMP activation. HT1080 RFP-PRO-GFP cells, GFP/RFP ratio fluorescence, overnight; percent of plate control window, DMSO zero. GFP/RFP ratio change, % at 20 µM. actives 0.061% (n = 360,000). AID 651647;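 active = GFP/RFP ratio change of at least 30% with cell ATP level not reduced by more than half and red fluorescence within 50% of control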; also: strong numbers were not always called active
#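 Test system: HT1080 cells expressing an RFP-PRO-GFP fluorescent reporter construct / Compound dosing: single-point 20 µM compound, 1% DMSO / Schedule: cells overnight before dosing, compound overnight, 37 °C, 5% CO2 / Evaluation: GFP/RFP fluorescence ratio / Control set: DMSO and RFP-L50D-GFP cell wells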
# CSC inhib: blocks cancer stem cells. inhibition, % at 7.5 µM. cancer stem cell-like cells viability, luminescence. actives 1.1% (n = 300,000);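 active = mean at 75% or more and at least half the replicates too; inconclusive = mean and replicates disagree; tested in HMLE shEcad cells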;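 also: 0% = median of negative and 100% = median of positive control wells; the first replicate is given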
# eIF4H inh: inhibitors of RNA binding by human eIF4H; eIF4H fluorescence polarization binding assay; actives 0.94% (n = 290,000); inhibition, % at 35 µM; Q15056;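 active = 50% or more with normal probe brightness, or confirmed in later tests; inconclusive = above 50% with abnormal brightness, or retests that disagree; inactive = below 50% or failed in later tests; about a fifth of its hits are not listed in these tables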;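 also: calls also rest on retests at 20 µM and on dose response follow-up; 0% = protein and probe with vehicle and 100% = probe without protein; strong numbers were not always called active; many hits fall short of the cut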
# HIV Env fusion: blocks HIV Env-driven cell-cell fusion. inhibition, % at 12.3 µM. HeLa-JRFL Env/CEM21 cell fusion, luciferase. actives 1.1% (n = 360,000);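 active = mean replicate inhibition score of at least 50 and every replicate individually at or above 50; inconclusive = only one of the two criteria met; inactive = mean below 50 and not all replicates reaching 50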;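 also: 0% = plate neutral controls and 100% = maraviroc near 300 nM; one replicate is shown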
# UUG fidelity: yeast start codon fidelity modulation; S. cerevisiae UUG-firefly luciferase reporter, luminescence/redox ratio; actives 0.13% (n = 350,000); activity score, % at 18.7 µM;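 active = replicate mean at a twofold rise or more, about +100% in these data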;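 also: firefly luciferase made from a UUG start codon reports start codon fidelity; reporter light over untreated wells divided by growth signal over untreated wells; some hits fall short of that in this replicate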
# PABP FP inh: blocks human PABP binding to poly(A) RNA; P11940; fluorescence polarization; inhibition, % at 35 µM; actives 1% (n = 290,000);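 active = 50% or more with normal probe brightness, or confirmed in later tests; inconclusive = above 50% with abnormal brightness, or retests that disagree; inactive = below 50% or failed in later tests; about a fifth of its hits are not listed in these tables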;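 also: calls also rest on retests at 20 µM and on dose response follow-up; controls were probe without protein and protein plus probe with vehicle; some compounds called inactive have numbers as strong as hits; many hits fall short of the cut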
# Target sequence (P11940 whole entry, looked up): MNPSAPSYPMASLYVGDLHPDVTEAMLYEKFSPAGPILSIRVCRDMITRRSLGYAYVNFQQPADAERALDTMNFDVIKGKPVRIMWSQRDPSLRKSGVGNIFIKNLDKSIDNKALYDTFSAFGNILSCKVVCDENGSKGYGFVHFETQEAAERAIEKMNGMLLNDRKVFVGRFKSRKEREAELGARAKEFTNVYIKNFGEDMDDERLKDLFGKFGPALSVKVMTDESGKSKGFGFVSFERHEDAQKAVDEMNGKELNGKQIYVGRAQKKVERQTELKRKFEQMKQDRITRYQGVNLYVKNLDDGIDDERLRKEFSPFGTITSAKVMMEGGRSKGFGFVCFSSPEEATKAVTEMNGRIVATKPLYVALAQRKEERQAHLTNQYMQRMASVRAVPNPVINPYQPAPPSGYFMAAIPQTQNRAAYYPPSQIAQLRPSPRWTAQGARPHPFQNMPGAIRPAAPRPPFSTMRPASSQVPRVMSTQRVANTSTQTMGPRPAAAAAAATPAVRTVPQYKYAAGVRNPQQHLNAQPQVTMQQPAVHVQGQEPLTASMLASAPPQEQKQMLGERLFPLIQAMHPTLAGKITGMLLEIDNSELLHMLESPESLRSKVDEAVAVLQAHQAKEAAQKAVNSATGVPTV
# eIF4H inh retest: also measured in eIF4H inh; calls as there; inhibition, %; compound at 20 µM; confirmation average;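 mean of two retest wells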
# PABP FP inh retest: also measured in PABP FP inh; calls as there; inhibition, %; compound at 20 µM; confirmation repeats;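 mean of two retest wells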
# MT1-MMP act inh RFP: further read-out of MT1-MMP act inh, marked with its call; RFP signal change, %; measured here: RFP expression control read;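 0 = vehicle wells; hits needed this value within 50% of zero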
# Starred values were filed as active, the others as inactive; i = inactive; ? = inconclusive; . = no result given. Compounds as they come, and some 3% of all compounds hit somewhere here.
SMILES,Rce1 inh,MT1-MMP act inh,MT1-MMP act inh RFP,CSC inhib,eIF4H inh,HIV Env fusion,UUG fidelity,PABP FP inh,others
COc1ccc(OC)c(CCNC(=O)c2sc3nc4n(c(=O)c3c2C)CCC4)c1,i,0,-1,0,-5,-1,7,2,
O=C(CN1C(=O)NC2(CCCC2)C1=O)Nc1nc2ccc(F)cc2s1,i,-1,0,-4,.,-2,-8,.,
C=CCn1c(SCC(=O)c2ccccc2)nnc1-c1ccc2c(c1)OCO2,.,2,-2,-13,0,.,.,7,
O=C(c1ccc(S(=O)(=O)N2CCCCCC2)cc1)N1CCN(c2ccccc2)CC1,i,-1,-6,10,-4,-3,-5,-1,
O=C1CCCc2c1cc(C(=O)NC1CCSC1=O)c(=O)n2-c1ccccc1 (stereo unspecified),i,-1,6,-3,-2,.,-4,-7,
CC(=O)c1sc(N/N=C/c2ccc(C(C)C)cc2)nc1C,i,-6,-5,.,1,-115,.,-4,
C=CCOc1cccc(CNn2nnnc2N)c1,i,2,4,-17,-5,-19,.,-2,
CNC(=S)N(CCc1ccc(OC)c(OC)c1)C1CC(=O)N(c2ccccc2)C1=O (stereo unspecified),i,0,-5,6,5,.,-12,-1,
COc1cccc(-c2c(C(=O)N/N=C(\C)c3cccnc3)nnn2-c2nonc2N)c1,i,-2,1,3,5,16,-11,1,
COc1ccc(C)cc1NC(=O)C(C)N(c1ccc(C)cc1)S(C)(=O)=O (stereo unspecified),i,1,-2,.,-8,-22,8,7,
O=C(NNc1ccc(C2CCCCC2)cc1)C(O)(c1ccccc1)c1cccs1 (stereo unspecified),i,-3,-1,.,-7,.,.,-2,
CC(C)(C)C(=O)Nc1cccc(-c2nnc(-c3cccc(NC(=O)C(C)(C)C)c3)o2)c1,i,-1,-1,-2,-9,.,-5,-6,
CC1(C(=O)Nc2ccc3c(c2)OCO3)CCN1C(=O)CCc1ccc(Cl)cc1Cl (stereo unspecified),.,1,1,.,.,-2,-13,.,
COc1cccc2cc(C(=O)NCC3CCCO3)c(=O)oc12 (stereo unspecified),i,-4,-1,0,-12,.,4,-11,
COC(=O)Cc1ccc(OC(=O)CCS(=O)(=O)c2ccc(C)cc2)cc1,i,3,4,-1,.,7,-7,.,
CS(=O)(=O)c1ccc(-c2cccc(NC(=O)c3ccco3)c2)nn1,i,2,7,-2,.,-4,6,.,
COc1ccc(-c2cc(C(F)(F)F)nc(NC3CCCC3)n2)cc1OC,i,-12,-8,23,1,37,-21,-8,
CCOC(=O)CC1C(=O)NCCN1C(=O)c1cccc(C(F)(F)F)c1 (stereo unspecified),i,2,3,-18,-5,.,-19,3,
Cc1cc(N2CCN(CC(O)C(F)(F)F)CC2)c2ccccc2n1 (stereo unspecified),i,4,2,7,-4,-23,-9,10,
Cc1cnc(NC(=O)c2ccc3c(c2)C(=O)N(Cc2ccco2)C3=O)s1,i,0,3,0,-7,.,-13,-10,
O=C(O)c1ccc(-c2nc3scc(-c4ccccc4)c3c(=O)[nH]2)cc1,i,8,3,-1,-2,15,-12,10,
CCN(CC)C(=O)c1ccccc1NS(=O)(=O)c1ccc(OC)c(C(=O)N2CCOCC2)c1,i,-1,3,0,-4,14,-4,-2,
COc1ccc(N2CCN(C(=O)Cn3ncc4c([nH]c5ccccc54)c3=O)CC2)cc1,i,2,1,8,-10,-7,-25,-3,
CC(=O)Nc1ccc(S(=O)(=O)Nc2nc3cc4c(cc3nc2Cl)OCCO4)cc1,i,-7,9,0,-3,13,-10,9,
CCn1c(COc2ccccc2C)nnc1SCC(=O)Nc1cc(C)on1,i,6,4,10,11,-16,-3,4,
O=C(Cn1ccc(C(F)(F)F)n1)N=Nc1c(O)[nH]c2ccc(Br)cc12,i,-3,-2,-20,-1,9,.,14,
COc1ccc(N(CC(=O)N2CCc3ccccc32)S(=O)(=O)c2c(C)noc2C)cc1,i,2,-5,7,5,-34,-8,5,
COc1cccc(/C=N/NC(=O)NC2CCCCC2)c1O,i,1,2,-20,-9,0,-6,4,
Cn1nc(C(=O)N2CCCC2)c2ccccc2c1=O,i,1,3,2,15,-34,-7,6,
CC(C)c1ccc(/C=C/C(=O)NCc2ccc(S(N)(=O)=O)cc2)cc1,i,2,0,3,-1,15,.,-12,
CC(C)C[C@@H](CC#N)N1CCN(Cc2ccccc2)CCC1=O,i,-5,5,18,4,10,6,4,
O=C(CSc1nnc(NC(=O)c2ccco2)s1)Nc1ccccc1F,i,-2,1,.,12,0,-2,-2,
CC(=O)N(Cc1ccco1)c1nc(C(=O)Nc2ccc(Cl)cc2)c(C)s1,i,0,-10,-11,-8,-45,-12,3,
Cc1noc(C(=O)Nc2cccc(Cl)c2)c1Cl,i,0,2,-5,3,-5,-11,5,
CC(=C/C(=O)O)/C=C/c1cccs1,i,-2,0,6,-4,.,-20,4,
O=C(CCN1C(=O)/C(=C\c2ccccc2F)SC1=S)N1CCCCC1,i,0,-4,66,-7,.,-18,2,
CCCc1cc(C(=O)Nc2ccc(C(=O)c3ccc(F)cc3)cc2)n(C)n1,i,2,-15,27,3,.,-3,5,
Fc1cccc(/C=N/Nc2nc3ccccc3[nH]2)c1,i,.,.,-15,6,-79,.,?,
CC1=CC2=NC(=O)CC(C)(C(=O)N(CC(=O)NC3CCCC3)c3ccccc3C)N2C=C1 (stereo unspecified),?,0,4,16,-11,-8,3,-7,
N#Cc1ccccc1Sc1ccccc1C(=O)NCC(c1ccco1)N1CCCC1 (stereo unspecified),i,-2,0,-7,.,-22,.,.,
CCOc1ccc(S(=O)(=O)NCCC(=O)Nc2cccc(C(=O)OC)c2)cc1,i,3,0,.,3,4,0,6,
O=C(O)c1cccc(S(=O)(=O)N2CCCC2)c1,i,12,6,1,-5,.,-13,26,
CCOc1ccc2c(c1)C(C)=CC(C)(C)N2,.,-8,3,-1,.,.,-20,.,
Cc1ccc(/C=N/NC(=O)CNC(=O)COc2ccccc2)o1,i,3,0,?,-6,17,.,1,
C[C@@H](C(=O)Nc1ccccc1N1CCOCC1)N1C(=O)C2CC=CCC2C1=O (stereo partly specified),i,6,6,-10,-9,.,-8,4,
CC(=O)c1cc(NC(=O)c2ccc(Cl)cc2)c(=O)oc1/C=C/N(C)C,i,-56,5,-4,4,-64,-12,-1,
Cc1cccc(N(C(=O)Cn2nnc3ccccc32)C(C(=O)NCc2ccco2)c2ccncc2)c1 (stereo unspecified),i,3,4,1,3,.,-25,-9,
c1ccc(CNc2ncnc3[nH]ncc23)cc1,.,2,-11,.,.,27,-11,.,
CCOC(=O)CCCCC(=O)c1[nH]c(=O)[nH]c1CSc1nc(C)cc(=O)[nH]1,i,-4,1,1,6,.,13,-2,
COC(=O)C(C)Sc1nnc2n(-c3cccc(C)c3)c(=O)c3c4c(sc3n12)CCCC4 (stereo unspecified),i,-5,2,1,-2,14,-13,11,

# Retrieved by structure from above, 2 records:
SMILES,Rce1 inh,MT1-MMP act inh,MT1-MMP act inh RFP,CSC inhib,eIF4H inh,HIV Env fusion,UUG fidelity,PABP FP inh,others
Cc1cccc(N(C(=O)Cn2nnc3ccccc32)C(C(=O)NCc2ccco2)c2ccncc2)c1 (stereo unspecified),i,3,4,1,3,.,-25,-9,
CCOc1ccc(S(=O)(=O)NCCC(=O)Nc2cccc(C(=O)OC)c2)cc1,i,3,0,.,3,4,0,6,

# Additional structures follow.
SMILES,Rce1 inh,MT1-MMP act inh,MT1-MMP act inh RFP,CSC inhib,eIF4H inh,HIV Env fusion,UUG fidelity,PABP FP inh,others
COc1ccc(NC(=O)c2cc(C)no2)cc1,i,3,5,21,5,-14,-11,-2,
CCNc1nc(NC(C)(C)C)nc(SCC(N)=O)n1,i,-1,-2,-13,-9,9,10,3,
CSCCC(N=C(NS(=O)(=O)c1ccc(Br)cc1)c1ccccc1)C(=O)O (stereo unspecified),i,-1,6,-4,-5,-4,10,-1,
COc1ccccc1OCC(=O)Nc1nc(C)c(C)s1,i,-4,1,-5,-5,-59,-11,-7,
COc1ccc(S(=O)(=O)N(C)CC(=O)N2CCCCCC2)cc1,i,-2,0,-14,-5,-19,-14,1,
COc1ccc(S(=O)(=O)N2CCC(C(=O)NC3CCCCC3)CC2)cc1OC,i,0,3,-10,.,-14,-4,.,
COc1ccc2nc(N3CCN(C(=O)c4ccc([N+](=O)[O-])o4)CC3)sc2c1,i,1,-15,2,.,-53,.,.,
COc1ccccc1NC(=O)COC(=O)c1ccc(S(=O)(=O)N2CCCCCC2)cc1,.,3,-1,-1,.,-4,.,.,
CC(C(=O)Nc1sc2c(c1C#N)CCCCC2)N1C(=O)c2ccccc2C1=O (stereo unspecified),i,-1,1,3,2,2,5,-1,
Cn1nnnc1SCC1=C(C(=O)O)N2C(=O)[C@@H](NC(=O)[C@H](O)c3ccccc3)[C@H]2SC1,i,-2,2,-3,87,.,-17,4,eIF4H inh retest=-3;PABP FP inh retest=3

# Of the compounds above, these contain a furan ring, fused or not:
SMILES,Rce1 inh,MT1-MMP act inh,MT1-MMP act inh RFP,CSC inhib,eIF4H inh,HIV Env fusion,UUG fidelity,PABP FP inh,others
CS(=O)(=O)c1ccc(-c2cccc(NC(=O)c3ccco3)c2)nn1,i,2,7,-2,.,-4,6,.,
Cc1cnc(NC(=O)c2ccc3c(c2)C(=O)N(Cc2ccco2)C3=O)s1,i,0,3,0,-7,.,-13,-10,
O=C(CSc1nnc(NC(=O)c2ccco2)s1)Nc1ccccc1F,i,-2,1,.,12,0,-2,-2,
CC(=O)N(Cc1ccco1)c1nc(C(=O)Nc2ccc(Cl)cc2)c(C)s1,i,0,-10,-11,-8,-45,-12,3,
N#Cc1ccccc1Sc1ccccc1C(=O)NCC(c1ccco1)N1CCCC1 (stereo unspecified),i,-2,0,-7,.,-22,.,.,
Cc1ccc(/C=N/NC(=O)CNC(=O)COc2ccccc2)o1,i,3,0,?,-6,17,.,1,
Cc1cccc(N(C(=O)Cn2nnc3ccccc32)C(C(=O)NCc2ccco2)c2ccncc2)c1 (stereo unspecified),i,3,4,1,3,.,-25,-9,
COc1ccc2nc(N3CCN(C(=O)c4ccc([N+](=O)[O-])o4)CC3)sc2c1,i,1,-15,2,.,-53,.,.,

# Compound activity deposited in PubChem BioAssay by several laboratories.
